FPRL1 ligand – human FPRL1 ligands by binding competition, primary screen, cell-based, FPR counter-screen, flow cytometry | AID 441, 2006 | FPRL1-expressing cells, fluorescent ligand binding inhibition | inhibition, %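 (tested at 6.7 µM)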 | N-formyl peptide receptor 2 (Homo sapiens), P25090 | 0.3% of 24,000 active;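 also: 0% = buffer alone and 100% = receptor blocker peptide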
Target sequence (P25090 whole entry, looked up): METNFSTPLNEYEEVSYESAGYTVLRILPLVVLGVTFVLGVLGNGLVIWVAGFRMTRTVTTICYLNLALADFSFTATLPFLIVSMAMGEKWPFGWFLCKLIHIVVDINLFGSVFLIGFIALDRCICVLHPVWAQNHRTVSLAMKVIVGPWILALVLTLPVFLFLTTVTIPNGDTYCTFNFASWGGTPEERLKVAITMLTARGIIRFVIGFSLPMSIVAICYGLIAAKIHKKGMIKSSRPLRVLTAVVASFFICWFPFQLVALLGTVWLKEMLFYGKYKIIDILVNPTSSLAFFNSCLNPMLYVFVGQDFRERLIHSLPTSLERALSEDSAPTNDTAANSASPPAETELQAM
VCAM-1 down – inhibitors of TNFa-induced VCAM-1 surface display, cell-based, plate reader, pooled HUVEC, TNFa stimulus (AID 454); HUVEC TNFa-induced VCAM-1 surface immunofluorescence, plate reader; numbers were filed only for top-ranked candidate wells; 0.2% of 10,000 active; inhibition, % at 5 µM;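 active = compound among top-ranked inhibitors of TNF-induced VCAM-1 adhesion protein staining, with the hit upheld by image or statistical review; inactive = the rest, including hits rejected on review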;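 also: 0% = TNFa with vehicle and 100% = cells without TNFa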
VCAM-1 up imaging – enhancers of VCAM-1 display on endothelial cells, imaging, high-content imaging, pooled HUVEC, TNFa stimulus (AID 457); Pooled HUVEC, TNFa-induced VCAM-1 immunofluorescence imaging; hits of this screen are not shown here; calls only; 0.2% of 10,000 active;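 active = a top-ranked rise in VCAM-1 staining upheld on image or statistical review; inactive = the rest, including candidates rejected on review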;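 also: compounds tested at 5 µM in the well; cells exposed to compound for 24 hours before fixing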
VCAM-1 down imaging – inhibitors of TNFa-induced VCAM-1 surface display, imaging, high-content imaging, pooled HUVEC, TNFa stimulus (AID 456) | HUVEC TNFa-induced VCAM-1 surface expression, immunofluorescence imaging; numbers were filed only for top-ranked candidate wells | one-dose inhibition, % at 5 µM; IC50 in µM for titrated hits | 0.2% of 10,000 active;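 active = top tenth filtered wells with inhibition above zero that passed visual or statistical confirmation; inactive = the rest, including hits rejected on review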;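 also: 0% = stimulated vehicle wells and 100% = unstimulated cells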
FPR ligand – human FPR ligands by binding competition, primary screen, cell-based, FPRL1 counter-screen, flow cytometry; FPR-expressing cells, fluorescent ligand binding; inhibition, %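 (tested at 6.7 µM)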; AID 440, 2006; 0.74% of 24,000 active;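 also: 0% = buffer wells and 100% = receptor blocker peptide wells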
Target sequence (P21462 whole entry, looked up): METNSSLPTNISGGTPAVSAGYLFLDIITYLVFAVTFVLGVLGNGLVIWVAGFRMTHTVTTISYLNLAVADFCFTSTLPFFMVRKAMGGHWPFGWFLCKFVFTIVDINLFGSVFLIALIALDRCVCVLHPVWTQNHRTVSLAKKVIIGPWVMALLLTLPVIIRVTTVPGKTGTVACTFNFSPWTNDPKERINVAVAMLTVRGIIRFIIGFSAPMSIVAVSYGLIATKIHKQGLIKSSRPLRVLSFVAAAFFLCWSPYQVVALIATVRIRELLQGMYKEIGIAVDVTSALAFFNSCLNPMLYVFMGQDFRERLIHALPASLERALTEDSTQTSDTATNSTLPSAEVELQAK
* = called active by the depositor; i = inactive; · = not tested or not shown.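 The calls were made as follows, unless noted: active = mean above 30%; inconclusive = self-fluorescent; inactive = the rest.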 These rows are one share of the data. The share of hits here may be higher or lower than overall.

Value order: FPRL1 ligand	VCAM-1 down	VCAM-1 up imaging	VCAM-1 down imaging	FPR ligand
> CCCCNC(=O)CS(=O)Cc1nc(-c2cccs2)oc1C (stereo unspecified)
  -3	·	·	·	6
> O=C(Cn1c(=O)n(Cc2ccco2)c(=O)c2ccccc21)Nc1cccc(Cl)c1
  -28	·	·	·	-5
> O=C(CCn1nc(-c2ccc(Cl)cc2)ccc1=O)NCCCN1CCCCCC1
  -4	·	·	·	1
> Cc1ccc(C)n1CCN1CCN(C(=O)CSc2nc3ccccc3nc2N2CCOCC2)CC1
  -10	·	·	·	2
> CCOC(=O)c1cnc2c(C#N)c(C)nn2c1-c1ccccc1
  -11	·	·	·	-13
> O=C(Cn1ncc2c(=O)oc3ccccc3c21)NCCCN1CCCC1=O
  2	i	i	i	-4
> COc1ccccc1-c1nnc(SCC(=O)N2CCC(C)CC2)o1
  1	·	·	·	2
> CCOC(=O)N1CCN(C(=O)CCCN2C(=O)CSc3nc(C)cc(C)c32)CC1
  -3	·	·	·	-1
> Cc1ccc(C)c(NC(=O)CSc2nnc(Cc3cccn3C)n2-c2ccc(F)cc2)c1
  3	·	·	·	-1
> CSc1cccc(NC(=O)CN2C(=O)c3ccccc3S2(=O)=O)c1
  -8	·	·	·	-3
> COc1ccc(C)cc1NC(=O)c1nnn(Cc2cccc(F)c2)c1N
  -3	i	i	i	-3
> Cc1ccc(CSC2=Nc3ccccc3C3=NC(CC(=O)NCc4ccco4)C(=O)N23)cc1 (stereo unspecified)
  2	·	·	·	4
> CC(C(=O)Nc1ccccc1-c1ccccc1)N1CCN(C(=O)c2ccco2)CC1 (stereo unspecified)
  -6	i	i	i	3
> O=C(CN1C(=O)C2C3C=CC(C3)C2C1=O)NCc1ccc2c(c1)OCO2 (stereo unspecified)
  1	i	i	i	-2
> CN(C)c1ccc(/C=C/C(O)=C2/C(=O)N(C)C3(C)CC2c2ccccc2O3)cc1 (stereo unspecified)
  -18	i	i	i	-15
> CC1(C)CC(=O)C2=C(C1)NC(=O)CC2c1ccc(F)cc1 (stereo unspecified)
  4	·	·	·	0
> Oc1ccc(-c2nc3ncccn3c2Nc2ccc3c(c2)OCO3)cc1
  -3	·	·	·	-2
> COc1ccccc1Cn1nnc2c(=O)[nH]c(C3CCN(C(=O)c4ccc(C)cc4)CC3)nc21
  7	·	·	·	-15
> CC(C)C(NS(=O)(=O)c1cccc2nsnc12)C(=O)N1CCc2ccccc2C1 (stereo unspecified)
  -3	·	·	·	0
> COc1ccc(CCNC(=O)C2(C)CCC(=O)N2Cc2ccc3c(c2)OCO3)cc1OC (stereo unspecified)
  0	i	i	i	-4
> c1ccc(OCCOc2ncnc3sccc23)cc1
  -6	i	i	i	-5
> COc1ccccc1OCc1ccc(C(=O)NC(C)(C)C)o1
  0	i	i	i	1
> COc1ccc2cc3cc(C(=O)NCCN4CCc5ccccc5C4)oc3nc2c1
  -8	·	·	·	6
> Cc1[nH]nc2nc(SCC(=O)NCC3CCCO3)n(-c3ccc(Br)cc3)c(=N)c12 (stereo unspecified)
  -1	·	·	·	1
> c1ccn2c(SCc3cn4ccsc4n3)nnc2c1
  -3	i	i	i	8
> CCCCn1c(=NC(=O)c2cccnc2)c(C(=O)OCC)cc2c(=O)n3ccccc3nc21
  -6	·	·	·	-2
> CCC(=O)N1CCc2cc(S(=O)(=O)NCCC(=O)Nc3cc(C)cc(C)c3)ccc21
  -3	·	·	·	1
> CCOC(=O)N1CCc2c(sc3c2C(=O)NC(c2ccc(-c4ccc(Cl)cc4)o2)N3)C1 (stereo unspecified)
  7	·	·	·	-18
> CCn1c(=O)c(C(=O)NCCc2ccccc2)c(O)c2ccccc21
  -4	i	i	i	2
> COc1nc(N2CCCC2)nc(-n2cc(-c3ccccc3)nn2)n1
  -3	·	·	·	-5
> CCc1nccn1S(=O)(=O)c1ccc2ccc(C)cc2c1
  10	i	i	i	2
> COc1ccc(OC)c(-c2cc(C(=O)Nc3cc(C)on3)no2)c1
  4	·	·	·	0
> O=C(O)c1c2c(nc3ccc(S(=O)(=O)N4CCC(C(=O)N5CCCCC5)CC4)cc13)CCCC2
  -4	·	·	·	2
> CC(NC(=O)Nc1nccs1)(C(F)(F)F)C(F)(F)F
  2	i	i	i	-4
> C=CCOc1ccc(C2/C(=C(\O)c3ccc(F)cc3)C(=O)C(=O)N2CCCN(C)C)cc1 (stereo unspecified)
  19	·	·	·	18
> O=C(O)CCC(=O)Nc1nc(-c2ccccc2)cs1
  8	i	i	i	8
> COC(=O)c1cc(=O)n(Cc2cccs2)c(=NCc2cccs2)s1
  8	·	·	·	6
> S=c1[nH]nc(-c2ccccc2)n1C1C=CCCC1 (stereo unspecified)
  4	i	i	i	6
> CCOC(=O)C(NC(=O)Nc1cccc(C)n1)(OCC(F)(F)F)C(F)(F)F (stereo unspecified)
  -1	·	·	·	2
> CCOC(=O)c1nnn(-c2nonc2N)c1CSc1ccc(C)cc1
  2	·	·	·	-3
> O=C(Nc1nc2c(s1)CCc1ccccc1-2)c1cccs1
  -14	i	i	i	-5
> COc1ccc(S(=O)(=O)NC2CCCCC2)c(C)c1C
  -3	i	i	i	12
> O=C(CSCCc1ccccn1)Nc1ccccn1
  -3	·	·	·	-4
> CC1=C(C)CC2C(=O)N(c3cccc4ccccc34)C(=O)C2C1 (stereo unspecified)
  -2	i	i	i	-2
> Cc1cc(C)c2c(C)nn(C3CCCCC3)c2n1
  4	i	i	i	-6
> CCOC(=O)Cc1csc(NC(=O)CSc2nnc(-c3ccncc3)n2Cc2ccco2)n1
  -4	i	i	i	-4
> Cc1ccc(Nc2nc(Oc3ccc(=O)[nH]n3)nc(N(C)C)n2)cc1
  -1	i	i	i	-4
> O=C(Nc1cccc2ccccc12)N1CCOCC1
  1	i	i	i	2
> COc1ccc(S(=O)(=O)N2CCN(CC(=O)Nc3ccc(F)c(F)c3)CC2)cc1
  -2	i	i	i	-1
> Cc1ccc(C)c(/C(O)=C2\C(=O)C(=O)N(CCCn3ccnc3)C2c2cccnc2)c1 (stereo unspecified)
  -2	·	·	·	13

Ordered by molecular weight (falling): three of the compounds above
Value order: FPRL1 ligand	VCAM-1 down	VCAM-1 up imaging	VCAM-1 down imaging	FPR ligand
> CCOC(=O)Cc1csc(NC(=O)CSc2nnc(-c3ccncc3)n2Cc2ccco2)n1
  -4	i	i	i	-4
> O=C(Nc1nc2c(s1)CCc1ccccc1-2)c1cccs1
  -14	i	i	i	-5
> COc1ccc(S(=O)(=O)NC2CCCCC2)c(C)c1C
  -3	i	i	i	12

Continued.
Value order: FPRL1 ligand	VCAM-1 down	VCAM-1 up imaging	VCAM-1 down imaging	FPR ligand
> COc1ccc(CNC(=O)c2cc3c(C)nc4ccccc4c3o2)c(OC)c1
  7	·	·	·	11
> O=C(CCCn1c(=O)[nH]c2ccsc2c1=O)NCc1cccs1
  5	·	·	·	5
> CC(CCc1ccccc1)NC(=O)C1CCN(S(=O)(=O)N2CCCCC2)CC1 (stereo unspecified)
  3	·	·	·	5
> COc1ccccc1N(CC(=O)NCc1ccccc1)S(C)(=O)=O
  6	i	i	i	2
> CC(NS(=O)(=O)c1ccccc1)C(c1cccs1)N1CCN(c2ccccc2)CC1 (stereo unspecified)
  2	·	·	·	-1
> Cc1ccc(-n2c(Cn3cnc4ccccc43)nnc2SCC(=O)O)cc1
  8	i	i	i	8
> CC(=O)Nc1c2c(nn1-c1ccc(C)cc1C)CSC2
  1	i	i	i	-3
> COC(=O)c1ccc2c(=O)n(CC3CCCO3)c(=S)[nH]c2c1 (stereo unspecified)
  -2	i	i	i	5
> CCCCCc1ccc(CC(=O)O)cc1
  2	·	·	·	-2
> Cc1sc2nc3c(C(=O)N4CCN(c5ncccn5)CC4)cccn3c(=O)c2c1C
  17	·	·	·	13

Exported tab-delimited: part of the list above.
smiles	FPRL1 ligand	VCAM-1 down	VCAM-1 up imaging	VCAM-1 down imaging	FPR ligand
CC(CCc1ccccc1)NC(=O)C1CCN(S(=O)(=O)N2CCCCC2)CC1 (stereo unspecified)	3	·	·	·	5
COc1ccccc1N(CC(=O)NCc1ccccc1)S(C)(=O)=O	6	i	i	i	2

Other structures.
Value order: FPRL1 ligand	VCAM-1 down	VCAM-1 up imaging	VCAM-1 down imaging	FPR ligand
> CCOC(=O)CNC(=O)C(Cc1ccccc1)NS(=O)(=O)c1ccc2c(c1)CCC(=O)N2 (stereo unspecified)
  -1	i	i	i	-8
> O=C(NCc1ccco1)C1CCCN(S(=O)(=O)c2cccc3nonc23)C1 (stereo unspecified)
  -3	·	·	·	-5
> COc1ccc(N2C(=O)C3CCCN3C2c2ccccc2Cl)cc1 (stereo unspecified)
  8	·	·	·	0
> Cc1cc(N/C(=N\S(=O)(=O)c2ccc(Cl)cc2)c2ccc(F)cc2)no1
  4	·	·	·	18
> O=C(NCC(c1cccnc1)N1CCN(c2ccccc2)CC1)OCc1ccccc1 (stereo unspecified)
  -3	·	·	·	-4
> CCSc1ccc2nnc(-c3ccc(F)cc3)n2n1
  1	·	·	·	3
> CSC1=NCCN1C(=O)c1ccc(Br)o1
  8	·	·	·	4
> O=C(Cn1[nH]c(=O)c2ccccc2c1=O)OCC(=O)N1CCCc2ccccc21
  3	i	i	i	0
> Clc1cccc2sc(N3CCCC3)nc12
  -6	·	·	·	2
> O=C(CCS(=O)(=O)c1cccc2nonc12)NC1CCCCCC1
  13	·	·	·	1
> Nc1cc(CN2C(=O)c3ccccc3C2=O)cc(Cl)c1O
  -4	i	i	i	9
> CC(C)(C)c1[nH]nc2c1C(c1ccc(OC(=O)c3ccco3)cc1)C(C#N)=C(N)O2 (stereo unspecified)
  -6	·	·	·	-2
> COCCCN(C(=O)Cn1ncc2c(=O)oc3ccc(C)cc3c21)C(C)c1ccncc1 (stereo unspecified)
  -4	·	·	·	-9
> CCOC(=O)C1CCN(C(=O)c2ccc(NC(=O)C3CCCO3)cc2)CC1 (stereo unspecified)
  5	·	·	·	0
> CC1(C)CC(=O)C(C=NCCO)=C(O)C1
  -3	i	i	i	4
> CC(C)(Oc1ccc(Cl)cc1)C(=O)NCc1ccncc1
  4	i	i	i	-4
> COc1ccc(C(CC(=O)O)NC(=O)c2cccs2)cc1 (stereo unspecified)
  -3	·	·	·	0
> CCOC(=O)Cn1c(=O)oc2cc(S(=O)(=O)NCCCc3ccccc3)ccc21
  -10	·	·	·	-5
> Cc1nn(Cc2ccc(Cl)c(Cl)c2)c(C)c1NC(=O)c1cc(C2CC2)on1
  12	·	·	·	5
> C/C=C/C=[N+](\[O-])C(C)/C(=N/O)c1ccc(F)cc1 (stereo unspecified)
  11	·	·	·	-6
> CCOCCCn1c(=S)[nH]c2cc(C(=O)NCCOC)ccc2c1=O
  2	·	·	·	-4
> Cc1cc(C)nc(SCC(=O)Nc2ccc(Br)cn2)n1
  -7	·	·	·	-3
> O=C(Cn1c(=O)oc2cc(S(=O)(=O)N3CCCC3)ccc21)NC1CCCc2ccccc21 (stereo unspecified)
  -4	·	·	·	3
> O=C(NCCN1CCc2ccccc2C1)Nc1ccc(F)cc1
  -2	·	·	·	1
> CCS(=O)(=O)N1CCC(C(=O)NCc2ccc(F)cc2Cl)CC1
  1	·	·	·	1
> CCOC(=O)CSc1nnc(-c2ccccc2OC)o1
  11	i	i	i	-2
> Cc1cc2nc(C3CCN(CC4COc5ccccc5O4)CC3)[nH]c2cc1C (stereo unspecified)
  -4	i	i	i	-6
> O=C(CSCc1ccccc1Cl)N1CCN(c2ccccn2)CC1
  -4	·	·	·	2
> COC(=O)C1C2C=CC3(CN(c4ccc(Cl)c(F)c4)C(=O)C13)O2 (stereo unspecified)
  4	·	·	·	0
> O=C(NCc1cccs1)C1CCN(S(=O)(=O)c2cccc3nsnc23)CC1
  6	·	·	·	-2
> CCOC(=O)c1cc2c(=O)[nH]ccc2nc1C
  8	·	·	·	0
> COc1ccc(C(=O)Nc2ccc(S(=O)(=O)NC(C)=O)cc2)cc1
  2	i	i	i	-8
> Cc1nc(SCc2cccc(F)c2)[nH]c(=O)c1C#N
  2	·	·	·	8

Compound activity from PubChem.
